NPYLR7 agonist: mosquito NPYLR7 agonism. HEK293T NPYLR7/Galpha15, GCaMP6s calcium fluorescence. activation, % at 10 µM. actives 0.15% (n = 270,000); in the data active means activation above about 40%;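 further: 0% = vehicle and 100% = reference agonist at the receptor; some compounds past the cut are filed as inactive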
NPYLR7 agonist max-min: further read-out of NPYLR7 agonist, marked with its call; activation, %; measured here: Max-Min RFU normalised activation; some inactives read as strong as hits;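 span of the calcium signal over five minutes; 0% = vehicle and 100% = native peptide agonist; compound fluorescence can raise it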
Starred values were filed as active, the others as inactive; & = joins results of further samples. The list is partial; the hit share may differ from the screen's.

Second line of a record – NPYLR7 agonist, NPYLR7 agonist max-min
1. COc1ccc(OC(C(=O)O[C@H]2C(=O)N(c3ccccc3)CC2(C)C)c2ccccc2)cc1 (stereo partly drawn)
→ 7, 7
2. COc1ccc(C(=O)Nc2sc3c(c2C#N)CC(C)(C)SC3)cc1[N+](=O)[O-]
→ -2, -5
3. CC1CCCCC1NC(=O)C(C)n1ncn2cccc2c1=O (stereo not drawn)
→ 2, -1
4. Cc1ccc(NC(=O)N2CCC(C(NC(=O)c3ccc4c(c3)OCO4)C(=O)N3CCCC3)CC2)cc1 (stereo not drawn)
→ -8, -3
5. Cc1c(C(C)NC(=O)c2csc(Cc3ccccc3)n2)cnn1-c1ccccn1 (stereo not drawn)
→ -2, -2
6. CCNC(=O)CN(CC)C(=O)c1ccc2c(c1)CCCC2
→ 7, 2
7. O=C(Nc1cccc(Cl)c1)N1CCCN(c2nc(Cc3ccccc3)nc3c2cnn3-c2ccccc2)CC1
→ -5, 0
8. C=CCn1c(C)c(C)n2c3c(=O)n(CC(=O)c4ccccc4)c(=O)n(C)c3nc12
→ 1, 22
9. Cc1cccc(Cn2c(C(=O)N3CCN(C(=O)c4ccccc4F)C(C)C3)cc3ccsc32)c1 (stereo not drawn)
→ -2, 4
10. COc1cccc(CNCCN2CCOCC2)c1OCC(N)=O
→ 6, 7
11. CN1CCN(c2cc(C(F)(F)F)nc(SCc3ccc(C(=O)NCCN4CCOCC4)cc3)n2)CC1
→ 8, 11
12. O=S1(=O)CCN2C(Cc3ccc(SC(F)F)cc3)=CSC2=N1
→ 2, 1
13. C=CCN1CCN(c2cc(Oc3ccccc3OC)ncn2)CC1
→ 28, 31
14. COc1ccc(OCCCN2C(=O)C3(CC(=O)N(CC(=O)N(C)OC)C3=O)c3cc(F)ccc32)cc1 (stereo not drawn)
→ -4, -12
15. C=CCCOC(=O)N1C[C@H](C(=O)NC)[C@H]2c3ccccc3NC(=O)[C@]21C
→ 2, 5
16. COCCN1CCN(C(=O)c2ccc(-c3cc(-c4ccccc4)n[nH]3)cc2)CC1
→ 3, -8
17. CSc1ccccc1C(=O)N1CCN(S(=O)(=O)c2ccccc2)CC1
→ 0, 4
18. CN1CCCN(c2nccn3ccnc23)CC1
→ 5, 3
19. Fc1ccc(Cc2noc(-c3ccc(NCCc4cnccn4)nc3)n2)cc1
→ 7, -2
20. COC(=O)NN=CC1CCCCC1
→ -1, -1
21. COc1ccc(C2CC(c3ccc(Br)cc3)=NN2S(=O)(=O)c2ccc(C)cc2)cc1 (stereo not drawn)
→ -1, -4
22. CCCCC(CC)C1OCC(CN2CCOCC2)O1 (stereo not drawn)
→ -11, -16
23. O=C(CC1C(=O)NCCN1CC(c1ccccc1)c1ccccc1)NCCCn1ccnc1 (stereo not drawn)
→ 2, 1
24. CCOC(=O)[C@@H]1[C@H](c2ccccc2)[C@@H](N(CCOCc2ccccc2)CCOCc2ccccc2)[C@H]2CCCN21
→ 19, 29
25. CNC(=O)c1nc(CN2CCOC(CCCC(C)C)C2)no1 (stereo not drawn)
→ 12, -5
26. CC(=O)CC(C)(C)NC(=O)CCN(Cc1ccccn1)C1CC1
→ -1, 1
27. CC(NC1(CNC(=O)C(C)n2ccnc2)CCCC1)c1ccccc1 (stereo not drawn)
→ 7, 5
28. COc1cccc(Cc2nc3c(c(=O)[nH]2)CN(C(=O)Nc2cccc(Cl)c2Cl)CC3)c1
→ 8, 13
29. COc1ccc(N2CCN(C(c3cccs3)C3Sc4ncnn4C3=O)CC2)cc1 (stereo not drawn)
→ 2, -2
30. Cc1nc(NCCCN2CCOCC2)c(C#N)c(C)c1[N+](=O)[O-]
→ -3, -11

Four of the compounds above, with one line to a screen:
19	Fc1ccc(Cc2noc(-c3ccc(NCCc4cnccn4)nc3)n2)cc1
22	CCCCC(CC)C1OCC(CN2CCOCC2)O1 (stereo not drawn)
26	CC(=O)CC(C)(C)NC(=O)CCN(Cc1ccccn1)C1CC1
12	O=S1(=O)CCN2C(Cc3ccc(SC(F)F)cc3)=CSC2=N1

| screen / no. | 19 | 22 | 26 | 12 |
| --- | --- | --- | --- | --- |
| NPYLR7 agonist | 7 | -11 | -1 | 2 |
| NPYLR7 agonist max-min | -2 | -16 | 1 | 1 |

Arranged by number of heavy atoms (low to high): part of the list above
Second line of a record – NPYLR7 agonist, NPYLR7 agonist max-min
30. Cc1nc(NCCCN2CCOCC2)c(C#N)c(C)c1[N+](=O)[O-]
→ -3, -11
17. CSc1ccccc1C(=O)N1CCN(S(=O)(=O)c2ccccc2)CC1
→ 0, 4
21. COc1ccc(C2CC(c3ccc(Br)cc3)=NN2S(=O)(=O)c2ccc(C)cc2)cc1 (stereo not drawn)
→ -1, -4

Back to the main list, starting 5 compounds before the break.
Second line of a record – NPYLR7 agonist, NPYLR7 agonist max-min
26. CC(=O)CC(C)(C)NC(=O)CCN(Cc1ccccn1)C1CC1
→ -1, 1
27. CC(NC1(CNC(=O)C(C)n2ccnc2)CCCC1)c1ccccc1 (stereo not drawn)
→ 7, 5
28. COc1cccc(Cc2nc3c(c(=O)[nH]2)CN(C(=O)Nc2cccc(Cl)c2Cl)CC3)c1
→ 8, 13
29. COc1ccc(N2CCN(C(c3cccs3)C3Sc4ncnn4C3=O)CC2)cc1 (stereo not drawn)
→ 2, -2
30. Cc1nc(NCCCN2CCOCC2)c(C#N)c(C)c1[N+](=O)[O-]
→ -3, -11
31. Cc1nn(CC(C)C)c2sc(C(=O)N(C)CC(=O)Nc3cccc(F)c3)cc12
→ 1, 4
32. COc1ccc(C(C)=O)cc1Cn1c(C)c(C(=O)N(C)Cc2ccc(F)cc2)sc1=O
→ -6, -1
33. CN(C)C(=O)N1CC[C@@H](c2ccc3ccccc3c2)[C@H](O)C1
→ 7, 8
34. O=C1CCNc2ncc(-c3cccc(Cl)c3)cc2CN1C1CC1
→ 6, 5
35. CCOC(=O)C1CCN(c2cc(-c3ccc(OC)cc3)nc3ncnn23)CC1
→ -4, -7
36. CCCN(C(=O)CCc1cc(OC)cc(OC)c1)C(C)(C)C
→ 1, 1
37. Cc1cc(C(=O)N2CCOC(COc3ccc(Cl)c(C)c3)C2)co1 (stereo not drawn)
→ 15, 24
38. Cc1ccnc(NC(=O)CNC(=O)Cc2cccc3ccccc23)c1
→ -3, -4
39. CSc1nnc(CC2CCN(Cc3cc(C(C)(C)C)n[nH]3)CC2)n1C
→ 10, 4
40. Cc1ccccc1C(=O)NC(Cc1ccccc1)C(=O)Nc1nnc(-c2ccc(Br)cc2)s1 (stereo not drawn)
→ 21, 20
41. CC(Sc1nc(C2CC2)nc2ccccc12)C(=O)N(C(C)C)C(C)C (stereo not drawn)
→ -4, -2
42. CC(=O)NC(NC(=S)Nc1ccc(C)cc1)C(Cl)(Cl)Cl (stereo not drawn)
→ -8, -12
43. O=C(CCn1cnc2ccccc2c1=O)NCC1CC2CCC1C2 (stereo not drawn)
→ -14, -19
44. CCOC(=O)Cc1nnc(NC(=O)Nc2ccc(Cl)cc2)s1
→ -9, -14
45. CSc1ccccc1NC(=O)c1ccc(S(=O)(=O)C(F)F)cc1
→ 19, 22
46. CN(Cc1nc(-c2cccnc2)no1)Cc1cccs1
→ 0, -1
47. COc1ccc(Br)cc1-c1nnc2n(Cc3ccccc3)c3c(=O)n(C)c(=O)n(C)c3n12
→ 6, 0
48. CCCCC(CC)C(=O)Nc1c(-c2ccc(OC)c(OC)c2)nc2ccc(C)cn12 (stereo not drawn)
→ -3, 1
49. COc1ccc(C2c3c(oc4ccccc4c3=O)C(=O)N2Cc2ccc(C)cc2)cc1 (stereo not drawn)
→ 0, 11
50. Cc1cc(C)c(OCC(O)Cn2cc(CO)c3ccccc32)c(C)c1 (stereo not drawn)
→ 1, 0
51. CCOc1ccc(-c2ccnc(N3CCN(C(=O)CCCC(=O)OC)CC3)n2)cc1
→ -6, -7
52. O=C(NCCCN1CCOCC1)C(C1CCCC1)N1CCN(C(=O)c2ccc(Cl)cc2Cl)CC1 (stereo not drawn)
→ -8, 0
53. Cc1ccc(C)c2sc(N(CCN3CCOCC3)C(=O)C3COc4ccccc4O3)nc12 (stereo not drawn)
→ 11, 5
54. CC(C)CN1CC(C(=O)C(C#N)c2nc3ccccc3[nH]2)CC1=O (stereo not drawn)
→ 3, 0
55. Cc1ccc2nc(-c3ccccc3C)c(NC(=O)COc3ccccc3)n2c1
→ -4, 0
56. Cc1ccc(C(=O)Nc2cccc(-c3ccc(N4CCCC4)nn3)c2)cc1
→ -5, -4
57. O=C(CCN=C1NS(=O)(=O)c2ccccc21)N1CCCCCC1
→ -2, -3
58. COc1ccc2cc(-c3[nH]ncc3CNC(c3nc4ccc(C)cc4[nH]3)C(C)C)ccc2c1 (stereo not drawn)
→ -8&-1, -8&-4
59. O=S(=O)(c1cc(NCc2ccccc2C(F)(F)F)ccc1F)N1CCOCC1
→ 2, -1
60. COc1cc(CC(=O)N2C(C)CC3CCCCC32)cc(OC)c1OC (stereo not drawn)
→ -1, 17

(continued)
Second line of a record – NPYLR7 agonist, NPYLR7 agonist max-min
61. COCC(NC(=O)CCn1c(C)cc2ccccc21)c1ccnn1C (stereo not drawn)
→ 20, 6
62. N#Cc1ccc(CS(=O)c2ccc(C(F)(F)F)cn2)cc1 (stereo not drawn)
→ -1, -4
63. COCCNC(=O)c1cc(-c2ccc(Cl)cc2)on1
→ -3, -4
64. COC(=O)c1c(C)nc(C)c(C(=O)OC)c1-c1ccccc1[N+](=O)[O-]
→ 5, 4
65. O=C(O)[C@@H]1C[C@H](n2cc(-c3ccc(F)cc3)nn2)CN1
→ 2, 2
66. CC(=O)N1CCN(C(=O)Cc2csc3nc(-c4ccccc4)cn23)CC1
→ 1, -1
67. COc1ccc2nc(N(CCN(C)C)C(=O)c3cc(C)on3)sc2c1
→ 1, 0
68. CCS(=O)(=O)Oc1cccc(CN(CC2CCCO2)C(=O)NC(C)(C)C)c1 (stereo not drawn)
→ 31, 30
69. O=C(c1ccc(F)c(F)c1)N1CCN(Cc2ccc(-c3noc(-c4cccc(C(F)(F)F)c4)n3)cc2)CC1
→ 18, 11
70. CCCNC(=O)c1nnc2n1CCN(C(=O)Cc1ccccc1)C2
→ -2, -2
71. O=C(CN1CCN(c2cc(-c3cccc(-c4ccccc4)c3)ncn2)CC1)N1CCCC1
→ 6, 2
72. COc1ccc(S(=O)(=O)Nc2ccc3[nH]c(C)cc3c2)cc1Br
→ -3, 0
73. CN(Cc1ccccc1)C(=O)N1CCN(S(=O)(=O)c2ccccc2C(F)(F)F)CC1
→ 17, 14
74. Cc1cc(N2CCCN(Cc3ccc(-n4cccn4)cc3)CC2)ccn1
→ 2, 1
75. O=C(CSc1ccc(NC(=O)C2CC2)nn1)Nc1ccc(F)c(Cl)c1
→ 3, 2
76. O=C(Cc1ccc(-c2ccccc2)cc1)Nc1ccc2c(c1)C(=O)NC2
→ 9, 6
77. O=C(C1CCN(Cc2nc(CCc3ccccc3)no2)CC1)N1CCCCC1
→ 0, -3
78. Cc1ccc(Cl)cc1-n1c(C2CCC2)n[nH]c1=O
→ -2, -6
79. O=C(NCCn1nc(-c2ccco2)ccc1=O)c1ccccc1
→ 8, 5
80. Cc1cccc(N(Cc2ccccc2)S(=O)(=O)c2c(C)noc2C)c1
→ 14, 6
81. O=C(Cn1cnnn1)Nc1nc(-c2ccco2)c(-c2ccco2)s1
→ 3, 8
82. CC(Oc1ccc(F)cc1)C(=O)N1CCC(C(=O)O)CC1 (stereo not drawn)
→ 11, 13
83. Cc1ccc2cccc(OC(=O)c3ccc([N+](=O)[O-])c(C)c3)c2n1
→ 6, 1
84. COc1nn(Cc2ccccc2)cc1[N+](=O)[O-]
→ 2, -2
85. Cc1cc(C(=O)Nc2cc(-c3onc4c3CCCC4)ccc2Cl)nn1C(C)(C)C
→ 5, -5
86. CCc1cc2c(=O)c(-c3nc4ccccc4n3C)coc2cc1O
→ 1, -7
87. Cc1ccccc1NS(=O)(=O)c1cc(C(=O)Nc2ccccc2)ccc1Br
→ 3, 2
88. O=C(Oc1c(Cl)cc(Cl)cc1Cl)c1ccc(S(=O)(=O)N2CCCC2)cc1
→ 15, 8
89. CCn1nc(C(=O)Nc2nc3c(C(C)C)cccc3s2)cc1C
→ 3, 2
90. CCC(c1cccnc1)N(C)Cc1cccc(OC)c1O (stereo not drawn)
→ 3, 2

Compound profiles, from the list above:
Cc1ccc2cccc(OC(=O)c3ccc([N+](=O)[O-])c(C)c3)c2n1 across the screens: NPYLR7 agonist: 6; NPYLR7 agonist max-min: 1
CCS(=O)(=O)Oc1cccc(CN(CC2CCCO2)C(=O)NC(C)(C)C)c1 (stereo not drawn) across the screens: NPYLR7 agonist: 31; NPYLR7 agonist max-min: 30
COC(=O)c1c(C)nc(C)c(C(=O)OC)c1-c1ccccc1[N+](=O)[O-] across the screens: NPYLR7 agonist: 5; NPYLR7 agonist max-min: 4
